PINK1 modulator – A Quantitative High throughput Screen to Identify Chemical Modulators of PINK1 Expression | PINK1 immunofluorescence, high-content cytometry, 24 h | Potency, µM (highest dose often 76.6 µM), without a hit: at the top dose activation (PINK1 increase), most hits filed as activators | 0.2% of 410,000 active; active = well fitted activation curve with a large enough effect; inconclusive = small, poorly fitted or top-dose-only effect; inactive = flat fitted curve, though single readings scatter; cell line not stated here;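 note: potency is the fitted concentration of half-maximal effect; % of control where 0% means no effect; nearly all actives have a fitted effect of over 65% in size; a mitochondrial uncoupler was the plate control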
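Compound titrations (5 concentrations, 24 h) on a stable cell line; DMSO and CCCP controls. Endpoint: fixed-cell PINK1 immunofluorescence with mitochondrial, cell and nuclear markers, scanned by microplate cytometer.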
gsp antagonist – qHTS for Antagonists of gsp, the Etiologic Mutation Responsible for Fibrous Dysplasia/McCune-Albright Syndrome: qHTS; 0.4% of 340,000 active; Potency, µM (top dose mostly 76.9 µM), for inactives: at the highest dose activity change, negative = inhibition, most hits filed as inhibitors; gsp-mutant cells, cAMP HTRF, 30 min; control for the full effect not named in the record; active = falling curve of any shape with a large fitted effect; inconclusive = falling curve, mostly with a smaller effect; inactive = flat or rising curve; cell line not stated here;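 note: intracellular cAMP measured with PDE inhibitor Ro 20-1724 present during compound exposure; potency is the fitted concentration of half-maximal effect; % is set by controls: 0 for no effect and ±100 for the full control effect; nearly all actives have a fitted effect of over 65% in size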
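HTRF cAMP measurement after 30 min RT detection following 30 min, 37C compound treatment alongside […] (added as 300 uM solution) in G418-selected cells seeded at 2000/well and grown 16–24 h.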
Sfp inh – qHTS Assay for Inhibitors of Bacillus subtilis Sfp phosphopantetheinyl transferase (PPTase) | Biochemical Sfp PPTase activity, qHTS | AID 1490, 2009 | Potency, µM, without a hit: max response, negative = inhibition, usual class: inhibitors | 3.5% of 310,000 active | 4'-phosphopantetheinyl transferase ffp (Bacillus subtilis), Q9F4F7; active = well fitted inhibition curve with a large enough effect; inconclusive = small, poorly fitted or top-dose-only effect, or another doubt; inactive = no such curve, though single readings can be large or run the other way;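 note: the enzyme is Sfp with the accession as filed and its product quenches rhodamine fluorescence; potency is the fitted concentration of half-maximal effect; 0% = enzyme reaction without inhibitor and -100% = no enzyme wells; top concentration of the series not given in the record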
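Buffer: 50 mM Hepes-Na pH 7.6, 10 mM MgCl2, 0.01% Nonidet P-40, 0.01% BSA. Enzyme 15 nM, pre-exposed to compound 15 min; substrates then added and fluorescence change tracked over 30 min.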
Menin MLL FP FL – qHTS Assay for Inhibitors Targeting the Menin-MLL Interaction in MLL Related Leukemias: Competition With Fluorescein Labeled MLL-derived Peptide; AID 1766, 2009; Fluorescence polarization, fluorescein-MLL peptide displacement from menin; FP activity change, % at 61.4 µM; 290,000 tested, under 10 active; inconclusive = falling polarisation curve, or a change in total fluorescence; inactive = total fluorescence flat and polarisation flat or rising; no compound was filed as active; the % refers to the polarisation; negative = inhibition;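 note: % of control where 0% means no effect; inhibitors lower the polarisation; unlabelled MLL peptide was the positive control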
gsp agonist – qHTS for Agonist of gsp, the Etiologic Mutation Responsible for Fibrous Dysplasia/McCune-Albright Syndrome: qHTS | gsp mutant cells, cAMP HTRF, 30 min; control for the full effect not named in the record | Potency, µM (highest dose often 76.9 µM), for inactives: top-dose activation (cAMP increase), hits mostly activators | 0.13% of 340,000 active | AID 624287, 2012; active = well fitted activation curve with a large enough effect; inconclusive = small, poorly fitted or top-dose-only effect, or another doubt; inactive = no such curve, though single readings can be large or run the other way; cell line not stated here;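 note: phosphodiesterase inhibitor Ro 20-1724 added with compounds to block cAMP breakdown; potency is the fitted concentration of half-maximal effect; nearly all actives have a fitted effect of over 60% in size; about a fifth of the inactives were tested at one dose only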
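Cells stably selected in G418 were plated at 2000/well, grown 16-24 hr, then given compounds in DMSO with the PDE inhibitor […] (300 uM solution added) for 30 min at 37C; cAMP was read by HTRF.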
D2 agonist – Beta-Arrestin HTS for Positive Allosteric Modulators of the Human D2 Dopamine Receptor: Agonists; AID 624465, 2012; DiscoveRx PathHunter D2 beta-arrestin, luminescence, 90 min; 100% = 57 uM dopamine signal; D(2) dopamine receptor (Homo sapiens), P14416; 0.084% of 360,000 active; activation, % (concentration not given with the values); in the data active = activation above about 40%; inconclusive = about 15% to 40%; inactive = below about 15%; note: compound concentration not given in the record; the text of the record calls up to 30% inactive
Target sequence (P14416 whole entry, looked up): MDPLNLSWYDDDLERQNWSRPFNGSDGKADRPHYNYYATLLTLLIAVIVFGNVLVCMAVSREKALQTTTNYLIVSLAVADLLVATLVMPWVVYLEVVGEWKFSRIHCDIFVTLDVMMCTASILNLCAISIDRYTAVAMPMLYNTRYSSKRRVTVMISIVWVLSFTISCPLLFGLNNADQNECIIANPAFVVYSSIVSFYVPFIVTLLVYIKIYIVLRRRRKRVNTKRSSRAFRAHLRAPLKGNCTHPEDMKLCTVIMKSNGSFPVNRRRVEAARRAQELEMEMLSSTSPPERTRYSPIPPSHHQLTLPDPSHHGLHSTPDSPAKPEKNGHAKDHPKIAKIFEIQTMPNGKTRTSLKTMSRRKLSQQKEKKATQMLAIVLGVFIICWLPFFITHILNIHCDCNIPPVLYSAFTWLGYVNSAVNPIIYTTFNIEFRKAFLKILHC
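DiscoveRx PathHunter D2 beta-arrestin cells (2,100/well) attached overnight, then compound-stimulated 90 min at 37 C in HBSS/10 mM HEPES/0.1% Tween-20 buffer; beta-galactosidase complementation read by luminescence after 1 h at ambient temperature. Dopamine 57 uM final (EC100) as control.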
ClpP mod – qHTS Assay for Activators of ClpP | ATP-dependent Clp protease proteolytic subunit (Bacillus subtilis (strain 168)), P80244 | purified B. subtilis ClpP, FRET peptide cleavage, 20 min | Potency, µM (top dose mostly 57.5 µM), for inactives: top-dose activity change, negative = active | 1.9% of 340,000 active | AID 651965, 2013; active = well fitted falling curve with a large enough effect; inconclusive = small, poorly fitted or top-dose-only effect; inactive = no such curve, though single readings can be large or run the other way; note: potency is the fitted concentration of half-maximal effect; the source files actives as falling curves though it sought activators and does not explain the sign; nearly all actives have a fitted effect of over 65% in size; many hits overshoot -100%
Target sequence (P80244 whole entry, looked up): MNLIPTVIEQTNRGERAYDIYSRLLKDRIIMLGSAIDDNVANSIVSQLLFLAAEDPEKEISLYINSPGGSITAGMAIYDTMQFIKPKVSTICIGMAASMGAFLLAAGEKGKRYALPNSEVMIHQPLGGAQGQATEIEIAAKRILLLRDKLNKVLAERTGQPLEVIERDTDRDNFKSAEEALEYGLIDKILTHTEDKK
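FRET quenching reversal measured ClpP activation: 10 microg/mL B. subtilis ClpP at pH 8 with the FRET-FV decapeptide, read at 430 nm after 320 nm excitation. The 20-min minus 0-min signal was scaled between DMSO/no-enzyme wells and ADEP (5.8 microM final).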
An asterisk follows results filed as active; ? = inconclusive; . = no result given; & = joins results of further samples; [ ] = dose if it differs, or a comment.

SMILES	PINK1 modulator	gsp antagonist	Sfp inh	Menin MLL FP FL	gsp agonist	D2 agonist	ClpP mod
CSc1ccccc1NC(=O)Nc1ccccc1Cl	3.7%	0%	-3%	1.9	-34%[15.4 µM]	-2.3	.
COC(=O)c1ccc(C(=S)NCC2(N(C)C)CCCCC2)cc1	13%	15%	18%	-1.1	12%[15.4 µM]	-3.0	.
COc1cccc(NC(=O)c2cnn(-c3ccccc3)c2C)c1	-0.4%	-4%	11%	4.4	1%	-2.1	1.2%
CCOC(=O)CCc1c(C)c(C#N)c2[nH]c3ccccc3n2c1=O	6.2%	?	-12%	3.0	23%	-3.3	61%
COc1ccc(C2=NS(=O)(=O)N(C)C(C(=O)Nc3cc(OC)c(OC)c(OC)c3)=C2)cc1	1.5%	-6%	0%	.	2%	5.0	.
CCOc1ccccc1C1N(c2ccc(F)cc2)C(=O)C2CCCN21 (configuration not stated)	0.4%	-12%	6%	1.1	-19%	-5.6	-5.7%
CC(NS(=O)(=O)c1ccccc1)C1CC2CCC1C2 (configuration not stated)	-1.0%	5%	.	.	3%	0.9	.
CN1CCN(S(=O)(=O)c2ccc(Cl)c3ccccc23)CC1	0.2%	5%	5%	.	16%	-5.9	4.1%
COc1ccc(CCNc2cc(N3CCN(C(=O)c4ccccc4F)CC3)ccc2[N+](=O)[O-])cc1OC	0.1%	-10%	4%	2.8	19%	1.4	-1.3%
CCc1ccc(N(C(C)=O)c2nc(CCl)cs2)cc1	0.6%	-1%	-21%	-0.1	-1%	-1.5	.
CCC(CO)Oc1cc(NC(=O)c2ccc([N+](=O)[O-])cc2)c2ncn(C(C)C)c2c1 (configuration not stated)	3.5%	5%	.	.	-14%	6.7	1.6%
Nc1cc(=O)nc(SCC(=O)Nc2ccccc2)n1-c1ccccc1	-1.1%	15%	9%	7.3	-2%[15.4 µM]	-2.5	0.8%
O=C(CN1CCN(c2cccc(C(F)(F)F)c2)CC1)NCc1ccccc1	1.5%	-12%	3%	-0.8	-7%[15.4 µM]	-0.9	-1.2%
COc1ccccc1N1CCN(c2ccc3cc(S(=O)(=O)N4CCCCC4)ccc3n2)CC1	3.2%&3.0%	3%	10%	2.8	12%	-0.1	3.9%&4.3%
CCOC(=O)C1=C(COC(=O)CNC(=O)c2ccc(C(C)(C)C)cc2)NC(=O)NC1C (configuration not stated)	-0.4%	0%	.	.	-96%[inhibitor]	-3.0	-4.2%
O=C(O)CCCn1cc(NC(=O)c2ccc(Br)o2)cn1	0.1%	-2%	11%	-2.0	8%[15.4 µM]	5.2	.
COc1ccc(OC)c(S(=O)(=O)N2CCC(C(=O)N3CCc4ccccc4C3)CC2)c1	-0.4%	-8%	-2%	1.4	-34%[inhibitor]	-0.4	-2.0%
Nc1c(-c2ccccn2)cnn1-c1nc(-c2ccc(F)cc2)cs1	4.4%	-1%	-7%	12	-2%	2.1	1.0%
Nc1ccc2oc3ccccc3c2c1	2.8%	6%	0%	0.1	-26%	-1.0	18µM*
CC(C)(C)c1ccc(C(=O)Nc2cccc(C(=O)N3CCOCC3)c2)cc1	-0.2%	-11%	-6%	-2.2	17%	0.4	-3.0%
Cc1ccccc1C(=O)NNC1CC(=O)N(c2ccc3c(c2)OCCO3)C1=O (configuration not stated)	0.6%	-3%	17%	6.8	-9%	0.2	-1.2%
C=CCNC(=O)C1CC(=O)N(c2ccc(C)cc2)C1 (configuration not stated)	-3.3%	5%	-10%	5.9	1%	-0.9	0.7%
Cc1ccc(S(=O)(=O)N2CCN(C(=O)COC(=O)/C=C/c3cccc(Cl)c3)CC2)c(C)c1	1.4%	4%	.	.	10%	-4.0	1.9%
CCCCNC(=O)NS(=O)(=O)c1ccc(NC(=O)C(NC(N)=O)C(C)CC)cc1 (configuration not stated)	3.3%	10%	12%	-0.2	-18%[15.4 µM]	1.0	.
Cc1cc(C)c(S(=O)(=O)Nc2ccccc2)c(C)c1	20%	2%	.	.	-13%	-4.3	-0.7%
COC(=O)C1CN(C(=O)COc2cc(C)cc(C)c2)c2ccccc2O1 (configuration not stated)	-1.2%	-25%	?	-1.1	-12%	-2.7	1.8%
CCC/S(CC1CC1(Cl)Cl)=N\S(=O)(=O)c1ccc(C)cc1 (configuration not stated)	?	-10%	2%	3.6	-27%	-3.6	0.9%
CN1CCN(c2ccc(CNC(=O)C3Cc4c(-c5ccc(Cl)cc5)ccnc4O3)cc2)CC1 (configuration not stated)	-1.2%	.	.	.	.	-4.1	0.7%
Cc1ccc2c(c1)N(CC(=O)NCCCc1ccccc1)C(=O)c1cccnc1O2	-0.4%	?	13%	-1.1	20%	-0.9	1.7%
CCCn1c(-c2cc(OC)c(OC)c(OC)c2)nc2nc3ccccc3nc21	.	1%	9%	0.4	11%	-1.1	-1.2%
COc1ccc(CNc2cc(-c3ccoc3)ncn2)c(OC)c1	2.4%	.	45µM*	?	.	.	.
CCCn1c(C(C)Nc2nc(-c3ccc(Cl)c([N+](=O)[O-])c3)cs2)nc2cc(Cl)c(N3CCCCC3)cc21 (configuration not stated)	9.4%	-3%	11%	-3.3	.	-1.0	2.1%
Cc1[nH]nc2c1C(c1ccccc1F)NC2=O (configuration not stated)	-0.8%	8%	14%	0.7	-42%[inhibitor]	-4.3	0.1%
COc1ccccc1N=C(C)C1=C(O)CC(c2ccccc2)CC1=O (configuration not stated)	1.3%	24%	14%	-10	3%[15.4 µM]	-2.8	0.2%
COCc1nnc(NC(=O)c2ccc(S(=O)(=O)N(C)C3CCCCC3)cc2)o1	-2.1%	-10%	-4%	3.8	-14%	-2.2	0.7%
O=C(CNC(=O)c1ccncc1)N/N=C/c1cc(Br)ccc1OCc1ccccc1	-2.4%	?	1%	-0.7	1%[15.4 µM]	0.0	-14%
S=c1nc(COc2ccccc2)[nH]c2ccccc12	23%	11%	32µM*	-11	?	-5.7	-1.9%
CCCNC(=O)C1(C)CCCN(C(=O)c2sccc2C)C1 (configuration not stated)	-0.7%	.	.	.	.	-5.8	-1.5%
Cc1cccc(NC(=O)CSCC(=O)N(CCC(C)C)c2c(N)n(Cc3ccccc3)c(=O)[nH]c2=O)c1	-1.6%	-4%	.	.	58%[15.4 µM]	-3.1	.
COc1ccc(COC(=O)NNC(=O)c2ccc(OC)cc2)cc1	?	6%	15%	5.4	-8%	0.3	-1.9%
CSc1nncc(-c2ccc(F)cc2)n1	-0.4%	6%	1%	6.1	-31%[inhibitor]	-1.1	-1.3%
COC(=O)c1c(NC(=O)CN2CCC3(O)CCCCC3C2c2ccccc2OC)sc(C)c1C (configuration not stated)	2.8%	-5%	-6%	?	-10%	-3.9	?
CCCCOc1ccc(-c2nnn(C(C)(C)C(=O)OC)n2)cc1	2.6%	?	15%	2.7	2%	-1.6	-0.8%
CC(C)(C)Sc1nc(O)cc(=O)[nH]1	-2.4%	-1%	15%	0.3	5%	-1.0	0.0%
O=C(Nc1nnc(Cc2ccccc2)s1)c1cccnc1	3.7%	-35%	6%	-0.8	2%[15.4 µM]	-2.8	.
CCOC(=O)/C(C#N)=C/c1cc2ccccc2nc1Cl	-2.2%[38.3 µM]	8%	-10%	3.7	6%	-4.0	-0.7%
COc1ccc(CN2CCNC(=O)C2CC(=O)NCCC2=CCCCC2)cc1OC (configuration not stated)	2.2%	14%	-5%	-2.2	-1%	-2.9	-0.3%
CCCCC(=O)Nc1c2c(nn1-c1ccc(C)cc1)CS(=O)(=O)C2	-0.6%	1%	7%	3.4	7%	5.5	-1.8%
O=C(CCC1CCCC1)N1CCN(C2CCCC2)CC1	-1.0%	10%	-7%	4.0	5%	-0.8	-6.6%
Cc1ccccc1-c1nc(CN2CCSCC2)c(C)o1	1.7%	0%	11%	-1.8	-5%[15.4 µM]	-8.5	-4.1%
CC1CCc2c(sc(NC(=O)COC(=O)c3ccccc3NCc3ccco3)c2C#N)C1 (configuration not stated)	3.7%[38.3 µM]	-3%	-6%	0.3	?	-2.8	13µM*
CCOC(=O)c1c(C)[nH]c(C(=O)C(C)OC(=O)c2ccc(NC(=O)CC#N)cc2)c1C (configuration not stated)	2.7%	1%	.	.	-2%	11	-0.8%
O=C(COc1ccc(-c2nnc(N3CCCCC3)c3ccccc23)cc1)N1CCCCC1	-1.6%	?	1%	-5.4	-31%[inhibitor]	-4.9	-3.4%
CC1CCN(S(=O)(=O)c2ccc(NC(=O)c3ccco3)cc2)CC1	-0.6%	2%	8%	1.8	-12%[15.4 µM]	-8.2	0.9%
COc1cccc(CN2CCN(Cc3c(C)nn(C(C)C)c3C)CC2CCO)c1 (configuration not stated)	1.8%	5%	7%	2.4	-38%[inhibitor]	0.4	-3.4%
O=C(O)CCCC(=O)NNC(=O)c1cccc(Br)c1	0.6%	9%	-7%	0.7	3%	2.4	.
Cc1cc(OCc2nn[nH]n2)c2c(-c3ccccc3)cc(=O)oc2c1	2.6%	-13%	19%	-1.2	?	-2.7	-13%
COc1cc(/C=N/NC(=O)CC(=O)NC2CCCCC2)ccc1O	-1.8%	-1%	8%	.	?	-3.1	.

A second format for two compounds above:
Fields – PINK1 modulator | gsp antagonist | Sfp inh | Menin MLL FP FL | gsp agonist | D2 agonist | ClpP mod
Cc1ccccc1-c1nc(CN2CCSCC2)c(C)o1
 : 1.7% | 0% | 11% | -1.8 | -5%[15.4 µM] | -8.5 | -4.1%
CC1CCc2c(sc(NC(=O)COC(=O)c3ccccc3NCc3ccco3)c2C#N)C1 (configuration not stated)
 : 3.7%[38.3 µM] | -3% | -6% | 0.3 | ? | -2.8 | 13µM*

Source: PubChem
